GLA inh pH 4.5: inhibitors of human alpha-galactosidase A at pH 4.5; P06280; purified enzyme, 4-MU-alpha-Gal fluorescence, pH 4.5; activity change, negative = inhibition, % at 105 µM; 230,000 tested, under 10 active; AID 1467; inconclusive = small, poorly fitted or top-dose-only inhibition, or a rising curve; inactive = flat fitted curve, though single readings scatter; no compound was filed as active;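 further: 0% = full activity with enzyme and -100% = basal without enzyme; dose as in the result columns while the protocol names 77 µM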
miR-21 FLuc: miR-21 reporter, rising signal | HeLa miR-21 FLuc reporter, luciferase, 48 h | Potency, µM (series often up to 38.3 µM), inactives show at the highest dose reporter change, positive = more light | 340,000 tested, under 10 active; active = well fitted rising curve with a large enough effect; inconclusive = small, poorly fitted or top-dose-only effect; inactive = no such curve, though single readings can be large or run the other way;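 further: % of control where 0% means no effect; miR-21 action dims this reporter so a rising signal means less miR-21 action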
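HeLa cells endogenously expressing miR-21, stably carrying CMV-driven firefly luciferase with a downstream miR-21 binding site, 2000 cells/well. Titrations up to approximately 40 uM, 48 hours; luciferase luminescence read.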
Rango-impB inh: inhibitors of Rango-importin beta complex formation. Potency, µM (highest dose often 92.2 µM), for the others: at the top dose inhibition of complex formation. Rango CFP/YFP FRET sensor + importin beta, 45 min. hit rate 0.031% among 340,000. Q14974; active = rising FRET ratio curve, often small or poorly fitted; inconclusive = mostly compound fluorescence or quenching in the first reads; inactive = flat curves in all reads;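 further: potency means the concentration at half of the fitted maximal effect; 0% = DMSO wells and 100% = buffer wells lacking importin beta; nearly all actives have a fitted effect of over 15% in size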
Target sequence (Q14974 whole entry, looked up): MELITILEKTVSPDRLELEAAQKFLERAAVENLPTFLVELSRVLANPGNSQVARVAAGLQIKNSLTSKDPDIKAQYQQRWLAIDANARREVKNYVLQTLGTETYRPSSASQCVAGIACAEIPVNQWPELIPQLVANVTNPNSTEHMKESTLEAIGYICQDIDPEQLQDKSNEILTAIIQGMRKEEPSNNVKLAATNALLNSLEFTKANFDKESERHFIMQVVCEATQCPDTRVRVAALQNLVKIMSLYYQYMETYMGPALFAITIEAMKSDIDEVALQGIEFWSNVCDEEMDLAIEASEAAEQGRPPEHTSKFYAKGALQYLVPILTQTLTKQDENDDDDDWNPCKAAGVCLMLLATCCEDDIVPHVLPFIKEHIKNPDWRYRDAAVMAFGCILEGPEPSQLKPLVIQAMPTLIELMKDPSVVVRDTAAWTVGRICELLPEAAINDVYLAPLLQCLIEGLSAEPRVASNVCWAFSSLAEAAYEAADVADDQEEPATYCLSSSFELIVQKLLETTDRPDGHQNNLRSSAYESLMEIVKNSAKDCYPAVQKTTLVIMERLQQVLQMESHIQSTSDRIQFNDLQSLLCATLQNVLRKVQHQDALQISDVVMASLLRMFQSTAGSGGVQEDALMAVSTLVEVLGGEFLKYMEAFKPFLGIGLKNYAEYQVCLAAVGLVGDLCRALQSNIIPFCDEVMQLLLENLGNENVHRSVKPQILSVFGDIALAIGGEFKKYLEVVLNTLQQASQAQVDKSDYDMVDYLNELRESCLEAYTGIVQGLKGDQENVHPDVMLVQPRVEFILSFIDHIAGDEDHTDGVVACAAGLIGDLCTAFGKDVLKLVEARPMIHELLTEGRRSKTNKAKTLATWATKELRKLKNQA
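Inhibition scored from the CFP 486 nm/YFP 530 nm FRET ratio 45 min after adding 0.125 microM importin beta to 50 nM Rango biosensor preincubated 5 min with compound (room temperature, PBS with DTT, Tween-20, BSA). No-importin wells as positive control.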
Rango release inh: inhibition of RanGTP-driven Rango-importin beta dissociation | hit rate 0.071% among 340,000 | Biochemical FRET Rango-importin beta, RanGTP-induced dissociation | Potency, µM (top dose mostly 46.1 µM), for the others: at the highest dose activity change, negative = inhibition; active means falling FRET ratio curve, often poorly fitted, with flat reads before Ran was added; inconclusive means other falling curves, or compound fluorescence or quenching; inactive means flat or rising ratio curve;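 further: potency means the concentration at half of the fitted maximal effect; % of control where 0% means no effect; nearly all actives have a fitted effect of over 45% in size; -100% = wells without RanGTP and RCC1; the record marks most hits as doubtful in a second field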
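Two FRET readings bracket the reaction: one 5 min after compound meets Rango–importin beta, another 45 min after RanGTP-RCC1 (0.6 uM Ran, 0.2 uM RCC1, 2 mM GTP) is added. Only the second defines inhibition.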
* marks the source's active call; other numbers are inactive results; ? = inconclusive; · = not tested or not shown. This is a subset, so the mix of outcomes need not match the whole.

SMILES	GLA inh pH 4.5	miR-21 FLuc	Rango-impB inh	Rango release inh
CCCCOc1ccc(S(=O)(=O)NNC(=O)c2cc3ccccc3o2)cc1	-4	-3%	-4.0%	-3%
Cc1ccc(C(=O)N2CCC3(CC2)Oc2ccc(Cl)cc2C(=O)C32CC(c3cccnc3)=NO2)s1 (configuration not stated)	0	2%	-0.2%	-11%
COc1ccc(CNC(=O)c2ccc(N3CCOCC3)c([N+](=O)[O-])c2)cc1	2	-17%	-2.5%	24%
Cc1[nH]c2ccccc2c1C(=O)CN1C(=O)NC2(CCCCCC2)C1=O	·	·	-2.3%	-15%
CCN(CC)C(=O)COC(=O)c1cc(-c2ccco2)nc2ccccc12	0	3%	?	-17%
C=CCn1c(SCC(=O)Nc2sccc2C(N)=O)nc2ccc(Cl)cc2c1=O	4	14%	0.9%	0%
Cc1cccc(-c2noc(-c3cc4ccccc4oc3=O)n2)c1	5	-34%	4.7%	15%
COC(=O)COc1nsnc1N1CCOCC1	-3	-5%	-1.1%	-9%
COc1ccc(NC(=O)CSc2nnc(CNC(=O)c3cccs3)o2)c(OC)c1	·	3%	-1.9%	-5%
CCC(=O)Nc1cccc(C2=NOC3(C2)C[C@@H](C(N)=O)N(C(=O)c2cc([N+](=O)[O-])cc([N+](=O)[O-])c2C)C3)c1 (some centres not stated)	-6	1%	0.3%	-13%
CCOC(=O)C1CCN(C(=O)CCS(=O)(=O)c2ccc3c(c2)CCN3C(=O)CC)CC1	-1	1%	2.8%	-11%
O=C(/C=C/c1ccccc1)N/C(=C/c1ccccc1)C(=O)N1CCOCC1	1	-7%	-0.3%	5%
CC(C)=CCC/C(C)=C/C=N/NC(=O)c1ccccc1[N+](=O)[O-]	3	-5%	-1.6%	-5%
Cc1oc2nc(SCC(=O)Nc3ccc(S(N)(=O)=O)cc3)nc(NC(=O)c3ccccc3)c2c1C	3	-5%	-1.6%	23%
CSc1cnnc2ccccc12	·	·	?	6%

Two compounds from above with just miR-21 FLuc and GLA inh pH 4.5.
Structure | miR-21 FLuc | GLA inh pH 4.5
COc1ccc(CNC(=O)c2ccc(N3CCOCC3)c([N+](=O)[O-])c2)cc1 | -17% | 2
COc1ccc(NC(=O)CSc2nnc(CNC(=O)c3cccs3)o2)c(OC)c1 | 3% | ·

Other records follow:
SMILES	GLA inh pH 4.5	miR-21 FLuc	Rango-impB inh	Rango release inh
COc1cccc(CCNS(=O)(=O)CCNC(=O)c2cccc(OC)c2)c1	·	·	-0.1%	-9%
Cc1c(C)c2cc(Cl)c(O)c(CN3CCCC(C)C3)c2oc1=O (configuration not stated)	?	-3%	?	?
Cc1occc1C(=O)NCCc1cccc(Cl)c1	-7	-48%	0.6%	8%
Cc1cccn2c(=O)c(/C=C(\C#N)S(=O)(=O)c3ccc(Cl)cc3)c(N3CCC(C(N)=O)CC3)nc12	2	-10%	?	?
CC1CCCN(c2ccc([N+](=O)[O-])cc2C(=O)c2ccccc2)C1 (configuration not stated)	-12	26%	?	-3%
O=C(Nc1cccc(S(=O)(=O)NC2=NCCC2)c1)c1ccccc1F	·	·	?	-23%
Cn1c(=O)[nH]c(=O)c2c1nc(N1CCN(Cc3ccccc3)CC1)n2CCSc1ncccn1	4	-4%	0.1%	24%
COc1ccc2c(c1)CCc1c-2n[nH]c1C(=O)NCCC(C)C	·	-16%	0.4%	-12%
CCOC(=O)c1c(C)n(C)c2ccc(OC(=O)c3ccc([N+](=O)[O-])cc3)cc12	1	-1%	0.3%	-3%
COCCCNC(=O)c1cc(OC)c(OC)c(OC)c1	-2	0%	0.9%	12%
COCc1ccc(C(=O)OC(C)C(=O)Nc2c(C)n(C)n(-c3ccccc3)c2=O)cc1 (configuration not stated)	·	·	4.3%	-7%
O=C(COc1ccc(Br)cc1)N1CCN(c2ncccn2)CC1	·	·	-0.6%	19%
CCCCn1nc2cc(C(=O)NCc3ccc(OC)cc3)ccc2c1OCC	6	-7%	0.4%	-4%
COc1ccc(/C(N)=N/OC(=O)c2cccc([N+](=O)[O-])c2C)cc1OC	5	-11%	0.0%	9%
CC(C)CCNC(=O)c1cc(S(=O)(=O)N2CCc3ccccc32)cn1C	·	0%	-1.2%	21%

Part of the list above in a different format.
Every second line gives: GLA inh pH 4.5 | miR-21 FLuc | Rango-impB inh | Rango release inh
> Cc1cccc(-c2noc(-c3cc4ccccc4oc3=O)n2)c1
 : 5 | -34% | 4.7% | 15%
> COC(=O)COc1nsnc1N1CCOCC1
 : -3 | -5% | -1.1% | -9%
> COc1ccc(NC(=O)CSc2nnc(CNC(=O)c3cccs3)o2)c(OC)c1
 : · | 3% | -1.9% | -5%
> CCC(=O)Nc1cccc(C2=NOC3(C2)C[C@@H](C(N)=O)N(C(=O)c2cc([N+](=O)[O-])cc([N+](=O)[O-])c2C)C3)c1 (some centres not stated)
 : -6 | 1% | 0.3% | -13%
> CCOC(=O)C1CCN(C(=O)CCS(=O)(=O)c2ccc3c(c2)CCN3C(=O)CC)CC1
 : -1 | 1% | 2.8% | -11%
> O=C(/C=C/c1ccccc1)N/C(=C/c1ccccc1)C(=O)N1CCOCC1
 : 1 | -7% | -0.3% | 5%
> CC(C)=CCC/C(C)=C/C=N/NC(=O)c1ccccc1[N+](=O)[O-]
 : 3 | -5% | -1.6% | -5%
> Cc1oc2nc(SCC(=O)Nc3ccc(S(N)(=O)=O)cc3)nc(NC(=O)c3ccccc3)c2c1C
 : 3 | -5% | -1.6% | 23%
> CSc1cnnc2ccccc12
 : · | · | ? | 6%
> COc1cccc(CCNS(=O)(=O)CCNC(=O)c2cccc(OC)c2)c1
 : · | · | -0.1% | -9%
> Cc1c(C)c2cc(Cl)c(O)c(CN3CCCC(C)C3)c2oc1=O (configuration not stated)
 : ? | -3% | ? | ?
> Cc1occc1C(=O)NCCc1cccc(Cl)c1
 : -7 | -48% | 0.6% | 8%
> Cc1cccn2c(=O)c(/C=C(\C#N)S(=O)(=O)c3ccc(Cl)cc3)c(N3CCC(C(N)=O)CC3)nc12
 : 2 | -10% | ? | ?
> CC1CCCN(c2ccc([N+](=O)[O-])cc2C(=O)c2ccccc2)C1 (configuration not stated)
 : -12 | 26% | ? | -3%
> O=C(Nc1cccc(S(=O)(=O)NC2=NCCC2)c1)c1ccccc1F
 : · | · | ? | -23%
> Cn1c(=O)[nH]c(=O)c2c1nc(N1CCN(Cc3ccccc3)CC1)n2CCSc1ncccn1
 : 4 | -4% | 0.1% | 24%
> COc1ccc2c(c1)CCc1c-2n[nH]c1C(=O)NCCC(C)C
 : · | -16% | 0.4% | -12%
> CCOC(=O)c1c(C)n(C)c2ccc(OC(=O)c3ccc([N+](=O)[O-])cc3)cc12
 : 1 | -1% | 0.3% | -3%
> COCCCNC(=O)c1cc(OC)c(OC)c(OC)c1
 : -2 | 0% | 0.9% | 12%
> COCc1ccc(C(=O)OC(C)C(=O)Nc2c(C)n(C)n(-c3ccccc3)c2=O)cc1 (configuration not stated)
 : · | · | 4.3% | -7%
> O=C(COc1ccc(Br)cc1)N1CCN(c2ncccn2)CC1
 : · | · | -0.6% | 19%

Next compounds follow:
SMILES	GLA inh pH 4.5	miR-21 FLuc	Rango-impB inh	Rango release inh
COc1ccccc1CN(C)C(=O)c1ccc(S(=O)(=O)NCc2ccco2)cc1	·	·	-4.0%	-7%
COc1ccc([N+](=O)[O-])cc1NC(=O)C(C)OC(=O)c1cccnc1 (configuration not stated)	3	-1%	2.5%	-1%
COc1cc2oc3ccccc3c2cc1N(CC(=O)N(C)C)S(=O)(=O)c1ccccc1	8	-13%	-4.6%	3%
O=C(N/N=C/c1ccncc1)c1cc2ccccc2cc1O	·	-13%	0.8%	-8%
N#CC1(NC(=O)COc2ccc(C(N)=O)cc2)CCCC1	·	·	1.3%	13%
COc1ccc(N2C(=O)C(C)(C)C2c2c(O)ccc3ccccc23)cc1 (configuration not stated)	·	-1%	-4.0%	-2%

Screens from PubChem BioAssay.
